# Rango complex inh: prevents formation of the Rango-importin beta complex. Q14974. Rango CFP/YFP FRET sensor + importin beta, 45 min. Potency, µM (highest dose often 92.2 µM), inactives show at the top dose inhibition of complex formation. 340,000 tested, 0.031% active. AID 540263; active = rising FRET ratio curve, often small or poorly fitted; inconclusive = mostly compound fluorescence or quenching in the first reads; inactive = flat curves in all reads;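 further: potency means the concentration at half of the fitted maximal effect; 0% = DMSO wells and 100% = buffer wells lacking importin beta; nearly all actives have a fitted effect of over 15% in size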
# Target sequence (Q14974 whole entry, looked up): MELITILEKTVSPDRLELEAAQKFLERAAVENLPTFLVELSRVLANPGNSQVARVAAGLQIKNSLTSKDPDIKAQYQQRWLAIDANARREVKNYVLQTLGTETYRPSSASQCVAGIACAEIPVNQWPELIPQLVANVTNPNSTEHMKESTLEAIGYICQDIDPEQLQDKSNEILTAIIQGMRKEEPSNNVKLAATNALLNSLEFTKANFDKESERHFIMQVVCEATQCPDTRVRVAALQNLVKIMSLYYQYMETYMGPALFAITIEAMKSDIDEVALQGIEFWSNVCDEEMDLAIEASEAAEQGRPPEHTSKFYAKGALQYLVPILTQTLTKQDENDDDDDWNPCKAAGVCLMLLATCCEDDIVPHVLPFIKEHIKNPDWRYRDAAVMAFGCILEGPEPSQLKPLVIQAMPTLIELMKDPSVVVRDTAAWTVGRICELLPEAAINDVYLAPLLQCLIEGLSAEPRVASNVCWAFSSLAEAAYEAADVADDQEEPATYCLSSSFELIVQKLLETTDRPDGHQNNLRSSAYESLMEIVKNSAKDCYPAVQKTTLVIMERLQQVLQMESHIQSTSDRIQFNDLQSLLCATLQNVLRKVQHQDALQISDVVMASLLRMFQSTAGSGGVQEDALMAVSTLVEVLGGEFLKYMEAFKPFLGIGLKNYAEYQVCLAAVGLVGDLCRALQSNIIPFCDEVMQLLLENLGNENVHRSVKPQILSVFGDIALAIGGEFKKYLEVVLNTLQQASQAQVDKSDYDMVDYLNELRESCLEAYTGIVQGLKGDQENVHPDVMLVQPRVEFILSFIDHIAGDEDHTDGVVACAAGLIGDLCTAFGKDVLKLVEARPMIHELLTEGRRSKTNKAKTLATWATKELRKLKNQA
#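 Inhibition scored from the CFP 486 nm/YFP 530 nm FRET ratio 45 min after adding 0.125 microM importin beta to 50 nM Rango biosensor preincubated 5 min with compound (room temperature, PBS with DTT, Tween-20, BSA). No-importin wells as positive control.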
# miR-21 reporter: miR-21 reporter, rising signal; Potency, µM (series often up to 38.3 µM), for inactives: at the top dose reporter change, positive = more light; 340,000 tested, under 10 active; HeLa miR-21 FLuc reporter, luciferase, 48 h; active = well fitted rising curve with a large enough effect; inconclusive = small, poorly fitted or top-dose-only effect; inactive = no such curve, though single readings can be large or run the other way;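 further: % of control where 0% means no effect; miR-21 action dims this reporter so a rising signal means less miR-21 action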
#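 HeLa miR-21-FLuc reporter line, endogenous miR-21; 2000 cells/well in DMEM/10% FBS; compound titration up to ~40uM final, 48 h, 37 degree Celsius; luciferase detection reagent, 15 min lysis, CCD luminescence.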
# GLA inh pH 4.5: alpha-galactosidase A (human) inhibition, pH 4.5; purified enzyme, 4-MU-alpha-Gal fluorescence, pH 4.5; activity change, negative = inhibition, % at 105 µM; 230,000 tested, under 10 active; AID 1467; inconclusive = small, poorly fitted or top-dose-only inhibition, or a rising curve; inactive = flat fitted curve, though single readings scatter; no compound was filed as active;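 further: 0% = full activity with enzyme and -100% = basal without enzyme; dose as in the result columns while the protocol names 77 µM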
# Rango release inh: prevents RanGTP from dissociating the Rango-importin beta complex | 340,000 tested, 0.071% active | O95149+P62826 | Biochemical FRET Rango-importin beta, RanGTP-induced dissociation | AID 540253 | Potency, µM (series often up to 46.1 µM), for inactives: at the highest dose activity change, negative = inhibition; active means falling FRET ratio curve, often poorly fitted, with flat reads before Ran was added; inconclusive means other falling curves, or compound fluorescence or quenching; inactive means flat or rising ratio curve;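 further: potency means the concentration at half of the fitted maximal effect; % of control where 0% means no effect; nearly all actives have a fitted effect of over 45% in size; -100% = wells without RanGTP and RCC1; the record marks most hits as doubtful in a second field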
#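 Recombinant Rango FRET biosensor (EYFP–snurportin 1 IBB–cerulean CFP10) at 0.1 uM premixed with 0.25 uM importin beta in PBS, 1 mM DTT, 0.02% Tween-20, 0.1% BSA. Compound added 5 min; RanGTP-RCC1 (0.6 uM Ran, 2 mM GTP, 0.2 uM RCC1) then triggers release, read at 45 min.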
# Active calls of the source: *; ? = inconclusive; . = no result given; & = joins results of further samples. The list is partial (hit frequency here may not be typical).
# Screens in order – miR-21 reporter, Rango release inh, GLA inh pH 4.5, Rango complex inh
[1] COCc1nc2sc(C)c(C)c2c(=O)[nH]1
    -10.9%, -3.1%, -6.3, -1.1%
[2] O=C(Cc1ccc(Cl)cc1)NCCCn1ccnc1
    2.3%, 18.2%, -13.8, 3.8%
[3] CCN(CC)c1ccc(NC(=O)CCCOc2cccc(C)c2)cc1
    -4.0%, 5.1%, -24.2, -0.5%
[4] COC(=O)c1ccccc1NC(=O)c1noc2c1CCC2
    -1.3%, -9.4%, 2.6, 0.0%
[5] c1ccc(-c2nnc(N3CCN(c4ccccn4)CC3)c3ccccc23)cc1
    -8.3%, 0.3%, -7.3, -0.1%
[6] Cc1ccc(-c2c(C(=O)N/N=C/C3CC=CCC3)nnn2-c2nonc2N)cc1 (stereo not given)
    -4.4%, 41.8%, ., -5.6%
[7] O=C(Nc1ccc(F)cc1)c1ccc2c(=O)n3c(nc2c1)CCCCC3
    -18.4%&-16.7%, -1.9%, ., 0.0%
[8] Cc1nc(Nc2ccc(S(N)(=O)=O)cc2)oc1C
    -2.6%, -5.8%, 3.5, -0.1%
[9] O=C(CCN1CCN(Cc2ccccc2)CC1)NNC(=O)Nc1cccc(C(F)(F)F)c1
    3.3%, 13.2%, ., 7.2%
[10] CN(C)S(=O)(=O)c1ccc(C(=O)Nc2ccccc2C(=O)O)cc1
    0.6%, 4.8%, -4.2, -0.1%
[11] CCN(c1ccc(NC(=O)COC(=O)C(C)N=C2NS(=O)(=O)c3ccccc32)cc1)C(C)C (stereo not given)
    ., 0.5%, ., -0.7%
[12] O=C(Nc1cc(Sc2ccccn2)cc([N+](=O)[O-])c1)c1cccc(Cl)c1
    28.3%, 11.6%, 10.3, 1.1%
[13] CCCCNC(=O)c1onc(CSc2ccccc2CC)c1C(=O)O
    12.1%, 21.2%, -9.5, 4.6%
[14] N#CC1=C(N)Oc2cc(O)c(C=Nc3ccccc3)cc2C1c1ccccc1 (stereo not given)
    ?, ?, 7.3, ?
[15] O=C(OCc1ccc(F)cc1)c1cc(=O)c2ccccc2o1
    -15.6%, -2.1%, ., -2.0%

# New compounds follow.
# Screens in order – miR-21 reporter, Rango release inh, GLA inh pH 4.5, Rango complex inh
[16] Cc1cc(NC(=O)Cn2cc([N+](=O)[O-])cn2)n(Cc2ccc(F)cc2)n1
    1.1%, -6.9%, -2.1, -0.7%
[17] CC(Oc1ccccc1F)c1nnc(SCC(=O)N(c2ccccc2)C2CCS(=O)(=O)C2)o1 (stereo not given)
    ., 11.7%, ., 3.0%
[18] O=C(CSc1ncccc1C(=O)O)NC1CCCCC1
    -0.5%, ?, ., ?
[19] Cc1nn(C(C)c2nc(-c3ccccc3)no2)c(C)c1[N+](=O)[O-] (stereo not given)
    -10.2%, -8.7%, 5.1, -1.7%
[20] COc1ccc(/C=C/C(=O)OCC(=O)Nc2ncc(Cl)cc2Cl)cc1
    ., -4.0%, ., 2.6%
[21] O=C(CCNS(=O)(=O)c1cccc2nonc12)NCCc1ccc(Cl)cc1
    2.3%, 1.7%, -0.9, 0.4%
[22] CCCNc1nc2c(c(=O)[nH]c(=O)n2C)n1Cc1cccc(Br)c1
    -0.2%, 2.2%, 9.3, ?
[23] CC(Oc1cccc(Cl)c1)C(=O)NNC(=O)c1cccnc1 (stereo not given)
    ., -17.1%, ., -3.6%
[24] CCn1c(CSc2nnc(-c3ccc4c(c3)OCO4)o2)nc2cc(S(=O)(=O)N(C)C)ccc21
    -8.5%, -1.8%, -0.3, ?
[25] CCc1ccc(/C=C2/SC(N3CCOCC3)=NC2=O)cc1
    -13.0%, -9.4%, -5.3, 4.4%
[26] COc1ccccc1N1CCN(C(=O)Nc2cccc(Cl)c2)CC1
    -39.7%, -5.6%, 4.4, 7.4%
[27] CCCS(=O)(=O)N1CCCC(C(=O)Nc2ccc3c(c2)CCC3)C1 (stereo not given)
    -7.1%, 1.1%, ., -0.6%
[28] O=C(NNC(=S)NC1CC2C=CC1C2)c1cccnc1 (stereo not given)
    0.1%, 5.1%, -11.0, ?
[29] COC(=O)c1ccccc1NC(=O)CN(CCc1ccccc1)S(C)(=O)=O
    -10.9%, 30.9%, 9.0, 1.2%
[30] FC(F)(F)c1cc(Cl)c2nnc(-c3cccnc3)n2c1
    -2.3%, -13.2%, -1.1, 0.1%

# Six compounds already listed, sorted by the number in miR-21 reporter, low to high:
# Screens in order – miR-21 reporter, Rango release inh, GLA inh pH 4.5, Rango complex inh
[26] COc1ccccc1N1CCN(C(=O)Nc2cccc(Cl)c2)CC1
    -39.7%, -5.6%, 4.4, 7.4%
[29] COC(=O)c1ccccc1NC(=O)CN(CCc1ccccc1)S(C)(=O)=O
    -10.9%, 30.9%, 9.0, 1.2%
[27] CCCS(=O)(=O)N1CCCC(C(=O)Nc2ccc3c(c2)CCC3)C1 (stereo not given)
    -7.1%, 1.1%, ., -0.6%
[30] FC(F)(F)c1cc(Cl)c2nnc(-c3cccnc3)n2c1
    -2.3%, -13.2%, -1.1, 0.1%
[18] O=C(CSc1ncccc1C(=O)O)NC1CCCCC1
    -0.5%, ?, ., ?
[28] O=C(NNC(=S)NC1CC2C=CC1C2)c1cccnc1 (stereo not given)
    0.1%, 5.1%, -11.0, ?

# Continuation:
# Screens in order – miR-21 reporter, Rango release inh, GLA inh pH 4.5, Rango complex inh
[31] Cc1ccc(-n2cc(C(=O)c3ccc4ccccc4c3O)cn2)cc1
    -0.9%, -10.9%, 3.7, 6.5%
[32] O=C1c2ccccc2-c2c1cccc2C(=O)N1CCOCC1
    -0.2%, -0.5%, -0.9, 1.9%
[33] Cc1cccc(NC(=O)c2cccc(NS(=O)(=O)c3ccc(Cl)cc3)c2)c1
    -2.8%, 6.8%, -3.5, 2.1%
[34] O=C(Nc1ccccc1)OCC(CN1CCCCC1)OC(=O)Nc1ccccc1 (stereo not given)
    ., 29.2%, ., ?
[35] NC(=O)Nc1ccc2c(c1)OCCO2
    -41.2%, -18.8%, 3.9, -4.4%
[36] CN(C(=O)CO/N=C/c1ccc(Cl)cc1)c1ccccc1
    -9.5%, -6.3%, -10.4, 4.4%
[37] CCc1cccc(C)c1NC(=O)c1ccc(CN2CCc3ccccc3C2)cc1
    9.3%, 1.2%, -4.5, -2.6%
[38] Cn1c(-c2ccc(N)cc2)nc2ccccc21
    -31.0%, -11.5%, 5.4, 3.9%
[39] CC(C)NC(=O)NC(=O)CSc1nnc(COc2ccccc2Cl)o1
    -0.7%, 3.0%, 5.2, 0.6%
[40] N#CCSc1nnc(COc2cccc3ccccc23)n1-c1ccccc1
    21.5%, -1.6%, 0.5, -5.0%
[41] CC(C)NC(=O)c1ccc(S(=O)(=O)N(C)C)cc1
    2.2%, -1.2%, 5.7, -1.9%
[42] Cc1ccc(NS(=O)(=O)c2cc3c4c(cccc4c2)C(=O)NC3=O)cc1C
    15.5%, ?, -0.5, 0.0%
[43] Cc1ccc2nc(C3CCCN(C(=S)Nc4cccc(C)c4C)C3)[nH]c2c1 (stereo not given)
    16.3%, 0.1%, 7.1, -1.5%
[44] CN1CCN(NC(=O)CN(C)S(=O)(=O)c2cc(Cl)ccc2Cl)CC1
    -2.1%, 19.6%, -15.4, 0.0%
[45] COc1ccc([C@H]2CC(=O)C=C(c3ccc4c(c3)OCO4)C2)cc1OC
    ., -8.5%, ., -3.3%

# Arranged by formula weight (lowest first): part of the list above
# Screens in order – miR-21 reporter, Rango release inh, GLA inh pH 4.5, Rango complex inh
[36] CN(C(=O)CO/N=C/c1ccc(Cl)cc1)c1ccccc1
    -9.5%, -6.3%, -10.4, 4.4%
[39] CC(C)NC(=O)NC(=O)CSc1nnc(COc2ccccc2Cl)o1
    -0.7%, 3.0%, 5.2, 0.6%
[34] O=C(Nc1ccccc1)OCC(CN1CCCCC1)OC(=O)Nc1ccccc1 (stereo not given)
    ., 29.2%, ., ?

# Other results follow:
# Screens in order – miR-21 reporter, Rango release inh, GLA inh pH 4.5, Rango complex inh
[46] O=C(NCc1cccnc1)c1ccccn1
    -11.7%, 9.1%, 3.8, -0.8%
[47] Cc1oc2cc3oc(=O)c(CCC(=O)NCCCC(=O)O)c(C)c3cc2c1C
    -1.0%, 27.9%, ., 1.6%
[48] CC(C)(C)NC(=O)CSC(=Nc1ccccc1F)NC#N
    -42.9%, -25.3%, 7.4, ?
[49] Cc1ccc(NC(=O)[C@H](CC(C)C)NC(=O)[C@@H]2Cc3ccccc3CN2)cc1
    -22.6%, -9.1%, ., -0.2%
[50] O=C(CNC(=O)c1ccc(Cl)cc1Cl)OCCOc1ccccc1F
    ., 9.5%, ., -2.7%
[51] O=C(Cn1c(=O)oc2ccccc21)N1CCOCC1
    -38.1%, -4.5%, 3.2, -3.6%
[52] O=C(C1CCCN(S(=O)(=O)c2ccc(Cl)cc2)C1)N(Cc1cccs1)C1CC1 (stereo not given)
    10.1%, 0.1%, -0.7, 2.6%
[53] CCOC(=O)C1(CCCc2ccccc2)CCN(C(=O)c2cnn(CC)c2)CC1
    -0.5%, 7.7%, -5.9, 5.3%
[54] O=C(NCC(=O)N1CCN(c2ccccc2F)CC1)c1ccco1
    -17.8%, 0.9%, ., 0.0%
[55] CC1CCCN(CC(O)COCc2ccccc2)C1 (stereo not given)
    -4.6%, 5.1%, -1.0, 1.6%
[56] CC(C)C(=O)Nc1nc2cc3c(cc2s1)OCO3
    -14.8%, 10.8%, 2.8, -2.3%
[57] COc1ccc(OC)c(NC(=S)NCCC(c2ccccc2)c2ccccc2)c1
    ., -19.1%, ., 2.1%
[58] NC(=O)C1CCN(C(=S)NCCc2ccccc2)CC1
    3.6%, -11.7%, 6.4, 1.3%
[59] O=C(c1cc(COc2c(F)cccc2F)on1)N(Cc1ccccc1)CC1CC1
    -27.2%, 15.6%, ., ?
[60] CN(C(=O)c1ccc(Cl)cc1)C1=CCCCC1CCC#N (stereo not given)
    -4.0%, -7.6%, 0.8, 2.6%

# Reformatted: entries from further up
cpd	compound	miR-21 reporter	Rango release inh	GLA inh pH 4.5	Rango complex inh
47	Cc1oc2cc3oc(=O)c(CCC(=O)NCCCC(=O)O)c(C)c3cc2c1C	-1.0%	27.9%	.	1.6%
48	CC(C)(C)NC(=O)CSC(=Nc1ccccc1F)NC#N	-42.9%	-25.3%	7.4	?

# Later entries
# Screens in order – miR-21 reporter, Rango release inh, GLA inh pH 4.5, Rango complex inh
[61] COC(=O)Cc1c(C)c2ccc(OCC(=O)N3CCCC3)c(C)c2oc1=O
    2.0%, 15.7%, ., 0.3%
[62] CCCN(CCC)C(=O)CC(c1ccccc1)c1cc(Br)ccc1O (stereo not given)
    9.3%, 1.6%, -3.0, -5.2%
[63] CC(=O)c1ccc(NC(=O)CCCC(=O)c2ccccc2)cc1
    -1.9%, 20.6%, ., -0.9%
[64] FC(F)(F)c1cccc(CNC(=S)Nc2ccccc2)c1
    9.7%, -9.1%, 0.3, 5.5%
[65] COCCCNC(=O)C1CCC(=O)N1Cc1ccccc1Cl (stereo not given)
    -2.8%, 1.1%, 2.8, 3.1%
[66] OC(COc1ccccc1F)CN1CCC(Cc2ccccc2)CC1 (stereo not given)
    -4.4%, 1.1%, ., -4.4%
[67] O=C(CSc1nnc(NC(=O)c2ccccc2[N+](=O)[O-])s1)NCc1ccco1
    -12.3%, -8.2%, ., -5.2%
[68] COc1ccc(-c2csc(N3CCC(c4ccccc4)CC3)n2)cc1
    2.2%, 24.4%, -1.1, 3.7%
[69] CC1(C)Cc2c(C#N)c(N)n(-c3ccccc3)c(=O)c2CO1
    -5.3%, 13.8%, 9.2, 7.2%
[70] O=C(CSc1nnc(Cc2ccccc2)n1-c1cccc(Cl)c1)NNC(=O)Cc1ccccc1
    0.1%, 6.1%, 4.7, 2.0%
[71] CN(C)c1nnnn1-c1ccccc1Oc1ncc(C(F)(F)F)cc1Cl
    4.8%, -14.9%, -0.4, 0.5%
[72] CN(C(=O)c1ccccc1)c1nccnc1C#N
    -14.3%, -12.9%, ., -3.7%

# From PubChem BioAssay
